TRPML1 agonist: activates the human TRPML1 channel; TRPML1-expressing cells, Ca2+ dye fluorescence, FDSS; host cell line not named in the record; reference of the full effect not given here; Q9GZU1; activation, % (concentration not given with the values); 0.12% of 410,000 active; in the data active = activation above about 50%; inconclusive = about 30% to 50%; inactive = below about 30%; note: 0% is about no effect; the text of the record puts the active cut at 80%
Target sequence (Q9GZU1 whole entry, looked up): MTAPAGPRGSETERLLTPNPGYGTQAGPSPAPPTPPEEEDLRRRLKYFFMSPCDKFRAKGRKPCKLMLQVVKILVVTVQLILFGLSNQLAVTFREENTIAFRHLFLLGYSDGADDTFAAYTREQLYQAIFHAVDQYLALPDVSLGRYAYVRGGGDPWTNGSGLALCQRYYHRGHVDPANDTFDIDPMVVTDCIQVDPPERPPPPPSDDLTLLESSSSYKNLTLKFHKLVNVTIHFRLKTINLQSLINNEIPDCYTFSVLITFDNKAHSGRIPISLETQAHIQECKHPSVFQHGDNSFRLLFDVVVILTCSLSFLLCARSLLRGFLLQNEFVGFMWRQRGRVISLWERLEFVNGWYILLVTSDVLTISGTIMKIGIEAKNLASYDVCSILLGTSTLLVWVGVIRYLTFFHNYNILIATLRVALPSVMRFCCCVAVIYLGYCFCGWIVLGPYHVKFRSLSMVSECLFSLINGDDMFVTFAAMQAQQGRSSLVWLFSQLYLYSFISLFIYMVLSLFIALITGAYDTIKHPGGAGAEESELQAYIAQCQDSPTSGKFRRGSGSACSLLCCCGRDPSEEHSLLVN
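In this qHTS format, compounds were pin-transferred onto Ca8-dye-loaded TRPML1-DL cells induced with Tet overnight, and intracellular Ca2+ fluorescence was recorded kinetically for 110 s after a 10 s baseline. A subsequent 4uM final 54-4 (EC80) addition followed by a second 110 s read served as the antagonist phase.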
Menin-MLL FL inh: menin-MLL binding inhibition, fluorescein peptide | Fluorescence polarization, fluorescein-MLL peptide displacement from menin | FP activity change, % at 61.4 µM | 290,000 tested, under 10 active; inconclusive = falling polarisation curve, or a change in total fluorescence; inactive = total fluorescence flat and polarisation flat or rising; no compound was filed as active; the % refers to the polarisation; negative = inhibition;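 note: % of control where 0% means no effect; inhibitors lower the polarisation; unlabelled MLL peptide was the positive control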
gsp agonist: gsp mutant agonism; gsp mutant cells, cAMP HTRF, 30 min; control for the full effect not named in the record; Potency, µM (series often up to 76.9 µM), without a hit: top-dose activation (cAMP increase), actives largely listed as activators; 0.13% of 340,000 active; active = well fitted activation curve with a large enough effect; inconclusive = small, poorly fitted or top-dose-only effect, or another doubt; inactive = no such curve, though single readings can be large or run the other way; cell line not stated here;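 note: phosphodiesterase inhibitor Ro 20-1724 added with compounds to block cAMP breakdown; potency is the fitted concentration of half-maximal effect; nearly all actives have a fitted effect of over 60% in size; about a fifth of the inactives were tested at one dose only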
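Cells stably selected in G418 were plated at 2000/well, grown 16-24 hr, then given compounds in DMSO with the PDE inhibitor […] (300 uM solution added) for 30 min at 37C; cAMP was read by HTRF.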
ClpP mod: qHTS Assay for Activators of ClpP; ATP-dependent Clp protease proteolytic subunit (Bacillus subtilis (strain 168)), P80244; purified B. subtilis ClpP, FRET peptide cleavage, 20 min; Potency, µM (doses to about 57.5 µM), for the others: at the top dose activity change, negative = active; 1.9% of 340,000 active; AID 651965, 2013; active = well fitted falling curve with a large enough effect; inconclusive = small, poorly fitted or top-dose-only effect; inactive = no such curve, though single readings can be large or run the other way; note: potency is the fitted concentration of half-maximal effect; the source files actives as falling curves though it sought activators and does not explain the sign; nearly all actives have a fitted effect of over 65% in size; many hits overshoot -100%
Target sequence (P80244 whole entry, looked up): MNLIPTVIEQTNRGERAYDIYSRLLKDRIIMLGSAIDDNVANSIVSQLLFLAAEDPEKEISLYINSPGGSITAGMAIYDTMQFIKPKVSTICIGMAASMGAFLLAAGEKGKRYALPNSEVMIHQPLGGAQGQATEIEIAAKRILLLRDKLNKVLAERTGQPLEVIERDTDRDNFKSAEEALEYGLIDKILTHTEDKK
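ClpP 10 microg/mL final, pH 8 Tris/KCl buffer with BSA, glycerol, Tween-20; compound pinned in; FRET-FV substrate; RT 20 min; Ex320/Em430; ΔFRET vs ADEP 5.8 microM, DMSO, no enzyme.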
TRPML1 blocker: inhibitors of human TRPML1 channel. Q9GZU1. TRPML1-inducible cells, Ca2+ dye fluorescence, FDSS; active compounds read low; inhibition of EC80 agonist-evoked calcium signal. activity change, negative = inhibition, % (concentration not given with the values). 0.02% of 390,000 active. AID 624415; in the data active means activity change below about -50%; inconclusive means about -30% to -50%; inactive means above about -30%;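 note: stimulus is agonist 54-4 at its EC80 concentration; % is set by controls: 0 for no effect and ±100 for the full control effect; the text of the record puts the active cut at -80%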
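Tet-induced TRPML1-DL cells loaded with Ca8 no-wash calcium dye were read kinetically on FDSS. Compound addition was followed by EC80 agonist 54-4 (4 uM final); inhibition was read over 110 s.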
gsp antagonist: antagonists of gsp mutant (McCune-Albright syndrome); 0.4% of 340,000 active; Potency, µM (top dose mostly 76.9 µM), inactives show at the top dose activity change, negative = inhibition, usual class: inhibitors; gsp-mutant cells, cAMP HTRF, 30 min; control for the full effect not named in the record; active = falling curve of any shape with a large fitted effect; inconclusive = falling curve, mostly with a smaller effect; inactive = flat or rising curve; cell line not stated here;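 note: intracellular cAMP measured with PDE inhibitor Ro 20-1724 present during compound exposure; potency is the fitted concentration of half-maximal effect; % is set by controls: 0 for no effect and ±100 for the full control effect; nearly all actives have a fitted effect of over 65% in size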
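Cells, 2000/well, grown 16–24 h in DMEM 10% FBS with 0.5 mg/ml G418, then compounds plus […] (300 uM addition stock), 30 min at 37C. cAMP read by HTRF (cAMP-d2 and anti-cAMP antibody-K in lysis buffer) after 30 min RT.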
Numbers without * were called inactive; ? = inconclusive; nt = not tested or not shown; [ ] = dose if it differs, or a comment.

SMILES	TRPML1 agonist	Menin-MLL FL inh	gsp agonist	ClpP mod	TRPML1 blocker	gsp antagonist
CCn1c(=O)c2c3c(sc2n2cnnc12)CCC3	2.1	-0.9	6%	-2.3%	33	3%
CC(=O)c1ccc(S(=O)(=O)N2CCC(NC(=O)c3ccccc3)CC2)cc1	-0.5	0.0	4%	1.5%	5	1%
COc1ccc(/C=C/C(=O)NCc2cn(C)nc2C)cc1COc1ccc(Br)cc1	1.7	-2.2	0%	-1.0%	26	-17%
N=c1oc2ccc3ccccc3c2cc1-c1nnc2n1CCCCC2	-0.2	-0.6	-35%[inhibitor]	16%	0	1%
COC(=O)C1Cc2c([nH]c3ccccc23)C2(CCN(Cc3ccccc3)CC2)N1 (configuration not stated)	18	2.6	2%	nt	-4	3%
CCOC(=O)COc1c(Cl)cc(/C=C2\N=C(C)OC2=O)cc1OC	-0.3	nt	5%[15.4 µM]	-0.5%	2	-1%
CCCN(CC(=O)Nc1ccccc1C)C(=O)c1cc(C)oc1C	-0.7	nt	-23%	-1.3%	-11	0%
COc1ccc(COC(=O)NC(C(=O)O)c2ccccc2)cc1 (configuration not stated)	-0.5	nt	17%	?	-11	2%
Cc1ccccc1-n1nc(C(=O)O)cc1-c1ccccc1	-0.2	-2.8	-18%	0.2%	-5	-7%
CC(C)=CC(=O)OCC(=O)Nc1cc(C)ccc1C	-0.2	-0.7	3%[15.4 µM]	0.9%	8	-8%
O=C(OCc1ccc(F)cc1)c1cc(=O)c2ccccc2o1	2.7	0.9	27%	nt	28	8%
CCOC(=O)N1CCN(C(=O)CCCn2c(=S)[nH]c3ccc(Br)cc3c2=O)CC1	0.1	-1.6	-59%[inhibitor]	-0.6%	-1	-25%
c1ccc(CSc2nccc(-c3ccco3)n2)cc1	1.5	nt	-1%	-1.0%	-24	-6%
O=C(Nc1ncccc1O)c1ccc(Cl)c(S(=O)(=O)N2CCCC2)c1	-0.8	nt	11%	-1.9%	-12	nt
O=c1c2cc(Br)ccc2[nH]c(=S)n1Cc1cccnc1	0.1	4.5	15%	-3.3%	8	-2%
Cc1ccc(N=Cc2c(O)n(-c3nccs3)c(=O)c3ccccc23)c(C)c1	1.9	3.0	30%	0.2%	1	-2%
CN(C)c1ccc(CN(Cc2ccco2)C(=O)c2ccco2)cc1	1.4	-2.0	-7%	-2.8%	-1	-2%
CC(C)(C)[C@@H]1C=C(C(N)=O)O[C@H](OCCCCO)C1	-0.7	nt	2%	-1.9%	-10	10%
O=C1C2CCCN2C(=O)N1CCN1CCN(c2ccccc2)CC1 (configuration not stated)	-0.3	0.3	-56%[inhibitor]	1.2%	-9	11%
Cc1cccc(OCC(=O)NCCNC(=O)c2ccco2)c1	-0.5	-0.5	10%[15.4 µM]	nt	1	-6%
CCn1c(CNC(=O)c2ccco2)nnc1SCCOc1ccccc1	1.1	-3.2	0%	nt	19	-15%
CCCCn1c(SCC(=O)c2ccc(OCC)cc2)nc2cc(S(N)(=O)=O)ccc21	0.1	1.9	-37%[inhibitor]	-2.0%	14	-13%
CCN(CC)S(=O)(=O)c1cc(C(=O)NC2=NCCS2)ccc1Cl	0.0	3.0	-3%	0.5%	-4	-7%
Cc1ccc(CNc2ccc3nnc(-c4ccccc4)n3n2)cc1	-0.7	-1.5	-7%	-5.7%	40	15%
CCc1ccc(S(=O)(=O)NCc2nc3cccnc3n2Cc2cccc(OC)c2)cc1	2.4	nt	nt	-4.5%	18	nt

(continued)
SMILES	TRPML1 agonist	Menin-MLL FL inh	gsp agonist	ClpP mod	TRPML1 blocker	gsp antagonist
O=C(O)c1ccc(Nc2ncnc3ccccc23)cc1	3.2	-6.6	5%	-1.7%	25	4%
O=C(NCCc1ccccc1)C(=O)Nc1nccs1	0.8	1.8	9%	2.5%	-3	15%
CCC(c1ccccc1)C(CC)c1cc(O)c(O)c(O)c1 (configuration not stated)	2.4	nt	23%	nt	16	1%
COc1ccc(C)cc1NC(=O)C1CCCN(S(=O)(=O)c2ccc3c(c2)oc(=O)n3C)C1 (configuration not stated)	-0.8	nt	nt	0.5%	5	nt
Cc1cccc(Nc2nc3ccccc3s2)c1C	1.5	nt	15%	2.6%	-5	-13%
CC(C)CN(C(=O)COC(=O)c1ccc2c(c1)NC(=O)CS2)C1CCS(=O)(=O)C1 (configuration not stated)	-0.7	-0.1	5%	-2.0%	3	2%
CN(Cc1ccccc1)c1ccc(-c2nc(-c3ccccc3)no2)cc1[N+](=O)[O-]	-0.5	nt	nt	-0.8%	-4	nt
O=C(NCCc1c[nH]c2ccccc12)C1CCN(S(=O)(=O)c2ccccc2F)CC1	-0.2	-6.9	0%	-0.3%	8	-1%
O=C(CSCc1ccccc1)Nc1cccc(F)c1	-0.7	2.8	0%[15.4 µM]	-0.3%	4	9%
CC(=O)c1ccc(NC(=O)CN2CCN(S(=O)(=O)c3ccc4ccccc4c3)CC2)cc1	0.0	nt	23%	-1.4%	10	-11%
COc1ccc(Cl)cc1NC(=O)C(C)OC(=O)Cn1cc(C(F)(F)F)ccc1=O (configuration not stated)	0.6	nt	-40%[inhibitor]	0.5%	-17	-7%
N/C(=N\OC(=O)Nc1ccccc1)c1ncc([N+](=O)[O-])s1	1.7	1.7	14%[15.4 µM]	nt	1	3%
CCOC(=O)C/C(N)=N/N(C)c1ncc(C(F)(F)F)cc1Cl	-0.5	4.6	-17%[15.4 µM]	nt	-4	2%
Cc1ccc(Nc2ncc(C(=O)Nc3ccc(F)cc3F)c3ccccc23)cc1Cl	-0.5	nt	nt	4.1%	-23	nt
Cc1cc(C(=O)NCC2CCCO2)sc1C (configuration not stated)	-0.5	nt	-6%[15.4 µM]	-3.4%	-10	3%
Cc1oc(-c2ccccc2)nc1C(=O)OCC(=O)NC(=O)NCC(C)C	0.5	2.0	-40%[inhibitor]	1.2%	2	-5%
C#CCNC(=O)C1=C[C@H](c2ccc(Br)cc2)C[C@H](OCCCCO)O1	-0.3	4.0	nt	1.3%	4	-3%
COc1cc2cc(C(C)(C)O)oc(=O)c2cc1OC	-0.6	nt	nt	-19%	9	17%
Cc1c(NC(=O)CSc2nnc(COc3ccccc3)n2-c2ccccc2)c(=O)n(-c2ccccc2)n1C	-0.3	1.0	-12%	0.2%	-26	-18%
CC1CN(Cc2ccccc2)C(C)CC1O (configuration not stated)	-0.3	-1.4	-43%[inhibitor]	nt	-2	8%
Cc1cc(C)c(NC(=O)COC(=O)C2CCN(c3ccc(C(F)(F)F)cn3)CC2)c(Cl)c1	1.2	nt	-58%[inhibitor]	-24%	-5	6%
O=C(Nc1nc(-c2ccccn2)cs1)c1ncc(Cl)c(Cl)c1Cl	0.3	5.0	16%	-2.6%	-9	-1%
O=S(=O)(c1ccc(Cl)nc1)N1CCCc2ccccc21	0.5	7.2	-2%	0.3%	-11	?
CCOC(=O)c1cccc(NC(=O)c2ccc3c(c2)nnn3C2CCCC2)c1	3.5	nt	nt	-0.3%	?	nt
COc1cccc(CNC(=O)COC(=O)CCS(=O)(=O)c2ccc(C)cc2)c1	0.5	nt	-1%	0.9%	-10	5%

New compounds follow.
SMILES	TRPML1 agonist	Menin-MLL FL inh	gsp agonist	ClpP mod	TRPML1 blocker	gsp antagonist
COc1ncnc2c1oc1ccccc12	0.5	-1.7	?	-2.5%	-14	10%
COc1cc(/C=C/C(O)=C/C(=O)/C=C/c2ccc(O)cc2)ccc1O	25	nt	nt	2.7%	-3	-24%
CC(C)c1ccccc1NC(=O)CCCC(=O)O	-1.0	1.5	4%	0.8%	-3	5%
Cn1c(=O)c(=O)n(C)c2cc(S(=O)(=O)N3CCOCC3)ccc21	0.1	0.7	?	-25%	-5	8%
Nc1nc(COc2ccc(Cl)cc2)cs1	1.5	6.0	-5%[15.4 µM]	nt	-17	7%
COc1ccc(-c2noc(=O)n2Cc2ccc(F)cc2Cl)cc1	0.1	-5.7	-2%[15.4 µM]	0.2%	11	4%
COc1ccc(C(=O)Nc2cc3c4c(c2)CC(=O)N4CCC3)cc1	55*	nt	?	-5.4%	?	9%
O=C(c1ccco1)N1CCN(c2cc(=O)n(-c3ccc(Cl)cc3)c(=O)[nH]2)CC1	-0.1	-1.2	-1%	-0.1%	-7	-3%
O=C(c1ccc(COc2ccccc2Cl)o1)N1CCCC1	1.7	1.9	22%	0.6%	-7	?
COc1cccc(NC(=O)C2CCN(S(=O)(=O)c3ccc4[nH]c5c(c4c3)CCCCC5)CC2)c1	0.3	nt	nt	?	2	nt

Among those listed so far, these contain a furan ring, fused or not:
SMILES	TRPML1 agonist	Menin-MLL FL inh	gsp agonist	ClpP mod	TRPML1 blocker	gsp antagonist
CCCN(CC(=O)Nc1ccccc1C)C(=O)c1cc(C)oc1C	-0.7	nt	-23%	-1.3%	-11	0%
c1ccc(CSc2nccc(-c3ccco3)n2)cc1	1.5	nt	-1%	-1.0%	-24	-6%
CN(C)c1ccc(CN(Cc2ccco2)C(=O)c2ccco2)cc1	1.4	-2.0	-7%	-2.8%	-1	-2%
Cc1cccc(OCC(=O)NCCNC(=O)c2ccco2)c1	-0.5	-0.5	10%[15.4 µM]	nt	1	-6%
CCn1c(CNC(=O)c2ccco2)nnc1SCCOc1ccccc1	1.1	-3.2	0%	nt	19	-15%
COc1ncnc2c1oc1ccccc12	0.5	-1.7	?	-2.5%	-14	10%
O=C(c1ccco1)N1CCN(c2cc(=O)n(-c3ccc(Cl)cc3)c(=O)[nH]2)CC1	-0.1	-1.2	-1%	-0.1%	-7	-3%
O=C(c1ccc(COc2ccccc2Cl)o1)N1CCCC1	1.7	1.9	22%	0.6%	-7	?

Some of the entries so far, with two lines to a compound:
The line under a structure holds: TRPML1 agonist	Menin-MLL FL inh	gsp agonist	ClpP mod	TRPML1 blocker	gsp antagonist
- CN(Cc1ccccc1)c1ccc(-c2nc(-c3ccccc3)no2)cc1[N+](=O)[O-]
    -0.5	nt	nt	-0.8%	-4	nt
- COc1cccc(NC(=O)C2CCN(S(=O)(=O)c3ccc4[nH]c5c(c4c3)CCCCC5)CC2)c1
    0.3	nt	nt	?	2	nt
